KCNQ2 inh = KCNQ2 potassium channel inhibitors, primary screen, cell-based, CHO-K1, FluxOR thallium flux, B-score (AID 2156). 20 min; stronger effect = lower value; only compounds with negative scores are shown here; some inactives read as strong as hits. hit rate 1.1% among 310,000. B-score at 10 µM. Potassium voltage-gated channel subfamily KQT member 2 (Rattus norvegicus), O88943;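 active = fluorescence ratio B-score at most minus 3 library SDs, with starting brightness B-score within 2 library SDs, cut at about -5.5 in these data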
Target sequence (O88943 whole entry, looked up): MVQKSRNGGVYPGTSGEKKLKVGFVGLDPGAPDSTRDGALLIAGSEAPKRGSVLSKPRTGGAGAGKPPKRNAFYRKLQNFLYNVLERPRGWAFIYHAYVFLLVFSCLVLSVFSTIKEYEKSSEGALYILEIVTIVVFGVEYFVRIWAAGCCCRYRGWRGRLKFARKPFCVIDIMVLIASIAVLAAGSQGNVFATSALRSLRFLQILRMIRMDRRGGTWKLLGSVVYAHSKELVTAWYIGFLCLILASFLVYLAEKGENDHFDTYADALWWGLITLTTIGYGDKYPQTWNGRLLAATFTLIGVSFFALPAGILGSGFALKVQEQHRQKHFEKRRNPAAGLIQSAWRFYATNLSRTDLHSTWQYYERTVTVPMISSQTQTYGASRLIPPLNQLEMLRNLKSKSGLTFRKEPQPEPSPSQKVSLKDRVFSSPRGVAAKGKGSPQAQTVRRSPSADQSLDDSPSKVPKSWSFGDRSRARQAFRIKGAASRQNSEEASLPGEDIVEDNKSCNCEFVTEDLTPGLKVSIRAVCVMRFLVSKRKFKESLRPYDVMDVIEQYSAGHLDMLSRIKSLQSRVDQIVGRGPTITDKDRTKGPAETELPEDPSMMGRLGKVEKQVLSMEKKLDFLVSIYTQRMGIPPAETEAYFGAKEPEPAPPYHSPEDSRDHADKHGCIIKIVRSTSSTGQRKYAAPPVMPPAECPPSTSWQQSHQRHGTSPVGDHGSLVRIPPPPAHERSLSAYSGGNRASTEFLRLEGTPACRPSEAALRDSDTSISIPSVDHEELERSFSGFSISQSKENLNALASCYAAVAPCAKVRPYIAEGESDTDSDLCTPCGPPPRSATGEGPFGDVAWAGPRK
KCNQ2 inh baseline = recorded beside KCNQ2 inh, whose call it bears; B-score; measured here: initial fluorescence intensity artifact check;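 brightness before thallium and not channel activity; 0 = typical well and far values either way flag optical interference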
Starred values were filed as active, the others as inactive; i = inactive.

SMILES	KCNQ2 inh	KCNQ2 inh baseline
CC(C)Sc1nc2c(cnn2-c2ccccc2)c(=O)[nH]1	i	1.5
O=C1CNC(=S)N1c1nc2ccccc2s1	i	-1.8
COC(=O)C1=C(C)N(Cc2ccccc2)C(=NCc2ccccc2)N[C@H]1c1cccc(F)c1	i	-1.7
CN(C(=O)c1cccc(OC2CCN(S(=O)(=O)N(C)C)CC2)c1)C1CCOC1 (stereo unspecified)	i	0.04
Cc1nn(C)cc1/C=N/NC(=O)CSc1ccccn1	i	-0.23
O=C(c1cccc([N+](=O)[O-])c1)c1ccc2c(c1)C(=O)NC2=O	i	-0.19
COCc1cc(=O)[nH]c(Sc2c(-c3ccccc3)c3ccc(Cl)cc3[nH]c2=O)n1	i	1.8
Cc1ccc(CNC(=O)C2CCCN2S(=O)(=O)c2ccc(Cl)cc2)cc1 (stereo unspecified)	i	1.7
Cc1cccnc1NC(=S)NCCc1ccccc1	i	-2
COc1cc(/C=C2/C(=N)N3C(SC)=NSC3=NC2=O)ccc1OC(=O)c1ccco1	i	2.3
COC(CNC(=O)CNC(=S)N(Cc1ccccc1)Cc1cccs1)OC	i	1.9
O=C(Nc1ccc2c(c1)oc1ccccc12)c1ccncc1	i	1.9
Cc1ccc(NC(=O)C2COc3ccccc3O2)cc1C (stereo unspecified)	i	-0.65
CCN(CC)S(=O)(=O)c1ccc(OC)c(NC(=O)c2cn(CC)c3nc(C)ccc3c2=O)c1	i	-0.01
Cc1cc(-n2nc(C)cc2C)n2ncc(-c3ccccc3)c2n1	i	0.56
Cc1ccc(NC(=O)CCS(=O)(=O)c2ccc3nc(C)sc3c2)cc1	i	0.38
N#Cc1c(NC(=O)C2CC(c3ccccc3O)=NO2)sc2c1CCC2 (stereo unspecified)	i	-0.81
Cc1ccc(-n2nc(C)c3c(C)c(CCC(=O)NC(C)c4ccccc4)c(C)nc32)cc1 (stereo unspecified)	i	-0.3
Cc1ccc(-c2nc3ccccc3[nH]2)cc1N	i	1.2
Cc1cccc(CSc2nc3c(cc2C#N)CCC3)c1	i	1.5
CCOC(=O)C1CCCN(C(=O)/C=C/c2cccc([N+](=O)[O-])c2)C1 (stereo unspecified)	i	0.02
CN(C)c1ccc(C2C3C(=O)NC(=O)C3ON2c2ccc(Cl)cc2)cc1 (stereo unspecified)	i	-0.97
Cc1onc(-c2ccccc2)c1C(=O)NC(C)CCc1ccccc1 (stereo unspecified)	i	1.5
Cc1ccc(S(=O)(=O)NCc2cccnc2)s1	i	2
Cc1cccc(NC(=O)[C@H](Cc2c[nH]c3ccccc23)NC(=O)[C@@H]2Cc3ccccc3CN2)c1	-6.5*	-0.6*
Cc1c(C(=O)N(Cc2ccccc2)C2CCS(=O)(=O)C2)oc2ccccc12 (stereo unspecified)	i	-0.85
COC(=O)c1ccccc1C(=O)c1cccc2ccccc12	i	-0.89
O=S(=O)(O)c1nc2ccccc2n1Cc1cccc2ccccc12	i	1.3
COCCNC(=O)c1ccc(CS(=O)(=O)c2ccc(C)cc2)o1	i	-0.67
CCOc1ccc(NC(=O)CN2CCN(C3c4ccccc4-c4ccccc43)CC2)cc1	i	-0.95
CCOc1ccc(-c2n[nH]c(C)c2Oc2ccccc2OC)c(O)c1	i	0.3
CC1(C#N)c2ccccc2C(Br)=CN1C(=O)c1ccccc1 (stereo unspecified)	i	1.6
CC1(C)CC(CC(=O)Nc2nccs2)(c2ccccc2)CCO1 (stereo unspecified)	i	0.07
O=C(C1CCC1)N1CCN(S(=O)(=O)c2ccccc2)CC1	i	-3.2
N#C/C=C(/N)N1CCN(c2ccc(Cl)c(Cl)c2)CC1	i	-1.2
CCC1CCCCN1CCCNC(=O)C1CCN(c2ncnc3c2nc2n3CCCCC2)CC1 (stereo unspecified)	i	-0.05
O=C(Oc1ccc2ccccc2c1)C1CCC1	i	0.01
NC(N)=NC(N)=Nc1cccc(Cl)c1	i	1.3
Cc1ccc(S(=O)(=O)Cc2ccc(C(=O)NCCc3ccccc3)o2)cc1	i	-0.52
Cc1ccc2c(c1)N(Cc1cccc(C#N)c1)C=NS2(=O)=O	i	0.14
CN(C)CC/C=C1/c2ccccc2Sc2c(O)cc(Cl)cc21	i	0.46
Cc1nc(N2CCN(C(=O)c3cccs3)CC2)c2c3c(sc2n1)CCCC3	i	-0.67
Cc1ccc(-c2nc(N/N=C/c3cccc([N+](=O)[O-])c3)c3ccccc3n2)cc1	i	0.87
CCOc1ccc(NS(=O)(=O)c2ccc(OCC(=O)NCc3ccncc3)cc2)cc1	i	0.4
CC(C)CNS(=O)(=O)c1ccc(CCC(=O)N2CCN(Cc3ccccc3)CC2)cc1	i	0.13
CCOc1ccc(N=C2NC(=O)SC2CC(=O)OC)cc1 (stereo unspecified)	i	0.74
COc1ccccc1N1CCN(Cc2cc3c(cc2Br)OCCO3)CC1	i	-1
Cn1c(-c2c(N)n(CCc3ccccc3)c3nc4ccccc4nc23)nc2ccccc21	i	0.26
COC(=O)CN1C(=O)COc2ccc(S(=O)(=O)N3CCCCCC3)cc21	i	-1.6
NCCCN1CCOCC1	i	-1.6
Cc1cc(NC(=O)c2oc3ccccc3c2C)ccc1-n1cnnn1	i	0.89
Cc1c(NC(=O)CSc2ncccn2)c(=O)n(-c2ccccc2)n1C	i	-3.3
COC(=O)c1[nH]c2cc(OC)ccc2c1NC(=O)c1ccc2c(c1)OCO2	i	-0.94
CCOC(=O)N1CCC(Nc2c(N3CCN(c4cccc(C(F)(F)F)c4)CC3)c(=O)c2=O)CC1	i	1.2
COCc1cc(C)nc2sc(C(=O)OC(C)C)c(N)c12	i	-0.6
CC(=O)C1=C(C)NC(SCC(N)=O)=C(C#N)C1c1sccc1C (stereo unspecified)	i	-0.26
O=C1C=C(O)CC(c2ccco2)C1 (stereo unspecified)	i	0.05
C=CCOc1ccc(C2NC(=S)NC(c3ccccc3)=C2C(C)=O)cc1OC (stereo unspecified)	i	-1.9
COc1ccc(Cl)cc1NC(=O)CN(C)S(=O)(=O)c1cccs1	i	-0.94
CCOC(=O)c1c[nH]c2c3c(ccc2c1=O)CCCC3	i	-0.84

(next part)
SMILES	KCNQ2 inh	KCNQ2 inh baseline
COc1ccccc1CC(=O)Nc1cccc2c1CCCC2	i	1.4
Cc1cccc(CS(=O)(=O)Cc2ccc(C(=O)NCCc3ccccc3)o2)c1	i	0.44
COCc1nn2c(N)c(C#N)cnc2c1-c1ccccc1	i	-0.07
O=C(CSc1ccc(Cl)cc1)c1ccco1	i	0.5
Cc1ccc(C(=O)Nc2ccccc2-c2ccccc2)cc1S(=O)(=O)Nc1cccc(C)c1C	-7.9*	2.2*
O=C(CN1C(=O)CSc2ccc(S(=O)(=O)N3CCOCC3)cc21)NCc1ccc(F)cc1	i	0.69
COC(=O)c1ccccc1NC(=O)CN1CCN(Cc2ccccc2)CC1	i	0.17
Nc1ncc([N+](=O)[O-])c(Oc2ccccc2F)n1	i	1
CC(=O)Nc1ccc(S(=O)(=O)N(C)CC(=O)OCC(=O)N2CC(C)OC(C)C2)cc1 (stereo unspecified)	i	0.05
COc1ccc(CNC(=O)c2cc(=O)c3cc(C)c(C)cc3o2)cc1	i	1.7
COc1ccc(-c2nc(CS(=O)(=O)CC(=O)NC3CCC(C)CC3)c(C)o2)cc1 (stereo unspecified)	i	-0.78
[O-]/C(=C(\C(=S)Nc1ccccc1F)[n+]1ccccc1)c1ccc(OC(F)F)cc1	i	-1.9
O=C(Nc1ccc(N2CCN(Cc3ccccc3)CC2)cc1)c1ccco1	i	-1.7
CCN(CC)CCNC(=O)C(=O)NCC1OCCN1C(=O)c1ccc2c(c1)OCO2 (stereo unspecified)	i	0.99
CC(NC(=O)C1CCCN1C(=O)OCc1ccccc1)c1ccccc1 (stereo unspecified)	i	-0.6
O=C(COc1cccc(Br)c1)NN=C1c2ccccc2-c2ccccc21	i	0.98
COc1ccc(CNC(=O)Cc2cccs2)cc1	i	0.01
c1ccc(Oc2cc(-c3ccccc3)nc(-c3ccccc3)n2)cc1	i	1
Cc1c(CCOC(=O)C2C3CC4CC(C3)CC2C4)sc[n+]1CC(=O)c1ccc(Br)cc1 (stereo unspecified)	-7.2*	0.18*
NS(=O)(=O)c1ccc(N2N=C(c3ccc(Br)cc3)CC2c2ccc(F)cc2)cc1 (stereo unspecified)	i	0.08
O=C(NCc1ccccn1)C(=O)C1C(=O)Nc2ccccc21 (stereo unspecified)	i	-0.34
O=C(NCCc1ccccc1)C(=O)NCC1CCCO1 (stereo unspecified)	i	-1.6
Cc1cccc(C(=O)Nc2ccc(O)c3c(=O)cc(-c4ccccc4Cl)oc23)c1	i	0.74
Cc1cc(C)cc(C(=O)NC(=S)Nc2ccc3[nH]c(=O)[nH]c3c2)c1	i	-2
CC1=CSC2=NC(=O)/C(=C\c3cccn3-c3ccccc3)C(=N)N12	i	1.8
CCN(CC(=O)NCc1cccs1)C(=O)c1cc(S(=O)(=O)NCc2ccccc2)ccc1C	i	-0.12
CCOc1ccc(-c2c(C(=O)N/N=C/c3cccc(Br)c3)nnn2-c2nonc2N)cc1	i	0.64
COc1ccccc1NNC(=O)C(O)(c1ccccc1)c1ccccc1	i	-0.45
CC1(C)CC(=O)C2=C(C1)NC1=C(C(=O)c3ccccc31)C2c1cccnc1 (stereo unspecified)	i	-1.4
Cc1ccc(N/C=C2\C(=O)C3(C)CCC2C3(C)C)cc1C (stereo unspecified)	-6.5*	0.69*
O=C(C(=O)N1CCCCC1)c1c(-c2ccccc2)[nH]c2ccccc12	i	-0.49
Cc1ccc(OCCOc2cccc3ccc(C)nc23)c([N+](=O)[O-])c1	i	-0.03
O=C(CN1C(=O)/C(=C/c2c(F)cccc2Cl)Oc2ccccc21)NCc1ccco1	i	0.29
CCCc1cc(C(=O)N2CCCC(Cc3cccc(Cl)c3)(C(=O)OCC)C2)n(C)n1 (stereo unspecified)	i	-0.47
CCCOc1ccc(N2C(=O)CC(N(Cc3ccco3)C(=O)CCC(=O)O)C2=O)cc1 (stereo unspecified)	i	1.3
CC1(C)NC(=O)N(CCOCCOc2ccccc2-c2ccccc2)C1=O	i	-0.27
Cc1coc2cc3oc(=O)c(CC(=O)N(C)CC(=O)O)c(C)c3cc12	i	1.1
CC(C)(C)c1ccc(C(CC(=O)O)NC(=O)C23CC4CC(CC(C4)C2)C3)cc1 (stereo unspecified)	i	0.06
COc1cccc(OCCOCCN(C)CCO)c1	i	0.97
Fc1ccc(-c2nnc(Cc3ccc(Cl)cc3)o2)cc1	i	-2.4
CC(=O)Nc1ccc(S(=O)(=O)NCC2CCC(C(=O)N3CCN(c4ccccn4)CC3)CC2)cc1 (stereo unspecified)	i	2
COc1cc(OC)cc(C(=O)N[C@H](C(=O)Nc2ccccc2N2CCOCC2)C(C)C)c1	i	-0.15
COC(=O)c1ccc(CSc2nc3ccccc3[nH]2)o1	i	-1
COc1ccc(Br)cc1/C=N/NC(=O)CNC(=O)c1cccnc1	i	1.8
Cc1cc(C)n(CC(=O)N2CCCC(N3CCN(Cc4ccc5c(c4)OCO5)CC3)C2)n1 (stereo unspecified)	i	1.1
CCN(CC)c1ccc(/C=N/NC(=O)c2c[nH]c3ccccc23)cc1	i	-0.21
CCN1CCN(S(=O)(=O)c2cc(OC)ccc2OC)CC1	i	0.77
COc1cccc(C(=O)NN2c3ccccc3CCc3ccccc32)c1	i	-0.58
O=C(NCc1ccc2c(c1)OCO2)Nc1ccc2nsnc2c1	i	0.77
O=C(N/N=C/c1ccccn1)c1ccc(N/N=C/c2ccccn2)cc1	i	-0.12
CNc1c(NC(=O)C2CCC(C)CC2)c(=O)oc2ccccc12 (stereo unspecified)	i	-1
COc1ccc(CNC(=O)c2noc3c2CCCCC3)cc1	i	-0.57
COc1ccc(COC(=O)CCc2c[nH]c3ccccc23)cc1F	i	0.49
CC1=C(C(N)=O)C(c2ccc(Br)cc2)n2ncnc2N1 (stereo unspecified)	i	0.22
COc1cc(/C=C2\SC(=S)N(N(C)c3ccccc3)C2=O)ccc1O	i	-0.22
CCOc1ccccc1OCC(=O)Nc1nnc(COC)s1	i	-1.6
COc1cccc(CNC(=O)CCCc2cn(C)c3ccccc23)c1	i	0.8
CSCCC(NC(=O)COc1cccc2ccccc12)C(=O)O (stereo unspecified)	i	0.82

By substructure: those above with an NH in an aromatic ring.
SMILES	KCNQ2 inh	KCNQ2 inh baseline
CC(C)Sc1nc2c(cnn2-c2ccccc2)c(=O)[nH]1	i	1.5
COCc1cc(=O)[nH]c(Sc2c(-c3ccccc3)c3ccc(Cl)cc3[nH]c2=O)n1	i	1.8
Cc1ccc(-c2nc3ccccc3[nH]2)cc1N	i	1.2
Cc1cccc(NC(=O)[C@H](Cc2c[nH]c3ccccc23)NC(=O)[C@@H]2Cc3ccccc3CN2)c1	-6.5*	-0.6*
CCOc1ccc(-c2n[nH]c(C)c2Oc2ccccc2OC)c(O)c1	i	0.3
COC(=O)c1[nH]c2cc(OC)ccc2c1NC(=O)c1ccc2c(c1)OCO2	i	-0.94
CCOC(=O)c1c[nH]c2c3c(ccc2c1=O)CCCC3	i	-0.84
Cc1cc(C)cc(C(=O)NC(=S)Nc2ccc3[nH]c(=O)[nH]c3c2)c1	i	-2
O=C(C(=O)N1CCCCC1)c1c(-c2ccccc2)[nH]c2ccccc12	i	-0.49
COC(=O)c1ccc(CSc2nc3ccccc3[nH]2)o1	i	-1
CCN(CC)c1ccc(/C=N/NC(=O)c2c[nH]c3ccccc23)cc1	i	-0.21
COc1ccc(COC(=O)CCc2c[nH]c3ccccc23)cc1F	i	0.49

Screening data deposited in PubChem by Johns Hopkins Ion Channel Center.

Some of the compounds tested; the hit share may differ from the screen's.
